PABP FP inh: blocks human PABP binding to poly(A) RNA; P11940; fluorescence polarization; inhibition, % at 35 µM; 290,000 tested, 1% active; AID 2014;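 active means 50% or more with normal probe brightness, or confirmed in later tests; about a fifth of its hits are not listed in these tables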;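 further: calls also rest on retests at 20 µM and on dose response follow-up; controls were probe without protein and protein plus probe with vehicle; some compounds called inactive have numbers as strong as hits; many hits fall short of the cut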
Target sequence (P11940 whole entry, looked up): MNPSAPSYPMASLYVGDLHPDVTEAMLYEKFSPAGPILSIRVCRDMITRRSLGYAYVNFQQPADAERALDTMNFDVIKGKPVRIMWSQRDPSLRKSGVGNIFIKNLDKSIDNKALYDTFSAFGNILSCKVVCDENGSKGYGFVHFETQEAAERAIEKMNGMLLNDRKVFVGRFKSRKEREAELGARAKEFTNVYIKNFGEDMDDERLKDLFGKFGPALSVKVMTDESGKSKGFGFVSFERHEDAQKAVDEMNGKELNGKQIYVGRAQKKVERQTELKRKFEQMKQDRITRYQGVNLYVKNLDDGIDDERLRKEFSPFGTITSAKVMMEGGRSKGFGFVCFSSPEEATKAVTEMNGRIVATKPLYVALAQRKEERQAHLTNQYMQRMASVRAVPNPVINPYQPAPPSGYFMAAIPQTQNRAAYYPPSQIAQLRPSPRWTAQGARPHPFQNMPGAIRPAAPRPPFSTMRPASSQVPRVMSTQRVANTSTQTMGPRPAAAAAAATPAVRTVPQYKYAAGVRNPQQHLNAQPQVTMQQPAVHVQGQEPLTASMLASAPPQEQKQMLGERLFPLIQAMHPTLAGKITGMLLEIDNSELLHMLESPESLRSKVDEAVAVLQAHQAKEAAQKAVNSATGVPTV
eIF4H inh: inhibitors of RNA binding by human eIF4H. AID 2012. 290,000 tested, 0.94% active. inhibition, % at 35 µM. Q15056. eIF4H fluorescence polarization binding assay;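 active means 50% or more with normal probe brightness, or confirmed in later tests; about a fifth of its hits are not listed in these tables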;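 further: calls also rest on retests at 20 µM and on dose response follow-up; 0% = protein and probe with vehicle and 100% = probe without protein; strong numbers were not always called active; many hits fall short of the cut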
MT1-MMP act inh: MT1-MMP (human) activation inhibition; GFP/RFP ratio change, % at 20 µM; AID 651647; HT1080 RFP-PRO-GFP cells, GFP/RFP ratio fluorescence, overnight; percent of plate control window, DMSO zero; 360,000 tested, 0.061% active;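 active means GFP/RFP ratio change of at least 30% with cell ATP level not reduced by more than half and red fluorescence within 50% of control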; further: strong numbers were not always called active
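Assay system – RFP-PRO-GFP reporter HT1080 cells · Compound dosing – single dose of 20 µM compound, 1% DMSO final · Incubation – overnight compound exposure at 37 °C · Measure – GFP/RFP fluorescence ratio · Benchmarks – DMSO wells and RFP-L50D-GFP cells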
CSC inhib: cancer stem cell inhibition | cancer stem cell-like cells viability, luminescence | 300,000 tested, 1.1% active | AID 2717 | inhibition, % at 7.5 µM;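 active means mean at 75% or more and at least half the replicates too; tested in HMLE shEcad cells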;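 further: 0% = median of negative and 100% = median of positive control wells; the first replicate is given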
Env fusion inh: inhibitors of HIV Env-mediated cell fusion; 360,000 tested, 1.1% active; inhibition, % at 12.3 µM; HeLa-JRFL Env/CEM21 cell fusion, luciferase; AID 651610;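 active means mean replicate inhibition score of at least 50 and every replicate individually at or above 50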;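 further: 0% = plate neutral controls and 100% = maraviroc near 300 nM; one replicate is shown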
UUG fidelity: alters start codon recognition fidelity in yeast | S. cerevisiae UUG-firefly luciferase reporter, luminescence/redox ratio | activity score, % at 18.7 µM | 350,000 tested, 0.13% active | AID 602363;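 active means replicate mean at a twofold rise or more, about +100% in these data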;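 further: firefly luciferase made from a UUG start codon reports start codon fidelity; reporter light over untreated wells divided by growth signal over untreated wells; some hits fall short of that in this replicate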
Rce1 inh: blocks yeast Ras-converting enzyme | yeast membranes, quenched prenylated peptide cleavage fluorescence | calls only | 290,000 tested, 0.27% active | AID 2563;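 active means fall in fluorescence gain of 50% or more versus controls, with final raw signal at or below 3038400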;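 further: plate controls were neutral control wells for no effect and wells lacking membranes for full effect; tested at 10 µM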
Target sequence (Q03530 whole entry, looked up): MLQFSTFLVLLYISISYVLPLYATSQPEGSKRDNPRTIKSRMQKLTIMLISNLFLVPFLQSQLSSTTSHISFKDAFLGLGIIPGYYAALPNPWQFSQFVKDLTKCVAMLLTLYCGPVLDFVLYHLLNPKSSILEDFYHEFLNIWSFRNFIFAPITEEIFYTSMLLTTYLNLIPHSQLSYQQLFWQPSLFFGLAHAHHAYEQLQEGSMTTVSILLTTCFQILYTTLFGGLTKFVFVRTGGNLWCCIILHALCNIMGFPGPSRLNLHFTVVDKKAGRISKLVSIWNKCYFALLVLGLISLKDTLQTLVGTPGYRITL
eIF4H inh retest: second read-out of eIF4H inh, no call of its own (marks repeat the call); inhibition, %; compound at 20 µM; confirmation average;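 mean of two retest wells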
PABP FP inh retest: also measured in PABP FP inh; calls as there; inhibition, %; compound at 20 µM; confirmation repeats;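 mean of two retest wells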
MT1-MMP act inh RFP: recorded beside MT1-MMP act inh, whose call it bears; RFP signal change, %; measured here: RFP expression control read;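 0 = vehicle wells; hits needed this value within 50% of zero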
* marks the source's active call; other numbers are inactive results; i = inactive; . = not tested or not shown; + = active, no number; & = joins results of further samples.

SMILES | PABP FP inh | eIF4H inh | MT1-MMP act inh | MT1-MMP act inh RFP | CSC inhib | Env fusion inh | UUG fidelity | Rce1 inh | others
Clc1ccccc1OCCCn1ccnc1 | 19.7 | 4.3 | -0.1 | 2.5 | -8.4 | -29.6 | 7.3 | i
O=C(CSc1nnc(-c2ccc3c(c2)OCO3)o1)Nc1ncc(Cl)cc1Cl | -1.4 | 2.0 | 4.0 | 3.0 | 31.3 | -19.4 | . | i
CC(Oc1ccccc1)C(=O)NNC(=O)c1cccs1 (stereo unspecified) | -1.0 | -5.2 | 4.9 | 6.1 | -8.9 | 15.1 | -3.9 | i
CCCS(=O)(=O)N1CCCC(C(=O)NC(C)c2ccc3c(c2)OCCO3)C1 (stereo unspecified) | -6.4 | -0.8 | 3.5 | 2.4 | -2.4 | . | -13.2 | i
CC1C(=O)N2CCCc3cc(S(=O)(=O)N4CCN(c5ccc(F)cc5)CC4)cc1c32 (stereo unspecified) | -8.3 | -8.3 | 3.4 | 1.0 | -0.9 | -1.9 | -7.3 | i
CCc1ccccc1NC(=O)C1CCN(C(=O)N2CCOc3ccccc32)CC1 | -3.6 | -11.3 | 6.7 | -8.9 | -15.8 | -12.5 | -2.4 | i
COc1ccc(C)cc1NC(=O)C1CCCN(S(=O)(=O)c2cccnc2)C1 (stereo unspecified) | -5.6 | -3.0 | -2.0 | 0.0 | -4.4 | -10.7 | 3.9 | i
CC(C)OCc1ccc(C(=O)N2CCN(S(=O)(=O)c3ccc(Br)s3)CC2)cc1 | . | . | 1.0 | -5.6 | 1.8 | -11.1 | -11.2 | .
O=S(=O)(NC1CCCCCCC1)c1ccc(F)cc1 | . | . | 0.4 | -3.4 | -1.2 | -7.1 | -3.7 | i
Cc1ccc(NC(=O)c2sc3ccccc3c2Cl)nc1 | -2.2 | -0.3 | -4.3 | -0.1 | 7.1 | . | -32.5 | .
COc1ccc(CC(=O)N[C@@H]2c3ccccc3CC[C@@H]2OCc2ccccc2)cc1 | . | . | -4.7 | -10.8 | . | 22.9 | -14.5 | .
O=C(COC(=O)CCCOc1ccc(Cl)cc1Cl)NCc1ccc(F)cc1 | 0.3 | -2.2 | 3.0 | 7.0 | -8.1 | 27.6 | . | i
CC(CNC(=O)CCn1c(=O)c2cccn2c2ccc(F)cc21)c1ccccc1 (stereo unspecified) | 2.3 | -6.5 | -2.4 | -4.2 | -12.0 | 14.0 | 6.9 | i
COCCNC(=O)CCCn1c(=O)c2cc(OC)c(OC)cc2n(CC(=O)Nc2ccccc2OC)c1=O | -8.9 | -2.7 | 1.5 | 6.2 | -8.7 | 20.5 | . | i
CCCN(CCC)CCNC(=O)c1cc2c(-c3ccccc3F)nn(C)c2s1 | 12.3 | 5.5 | 1.7 | -2.6 | 2.2 | -1.5 | . | +
Cc1ccccc1Nc1nc(N)nc(CCl)n1 | -7.0 | -10.6 | -1.4 | -5.9 | -4.9 | -41.6 | -17.1 | i
Cc1c(Cl)ccc2c(C(=O)NCCCn3nccc3C)cc(-c3ccccn3)nc12 | 0.9 | 9.2 | -2.8 | -6.1 | -3.1 | 10.5 | -25.6 | i
Cc1ccc(CNC(=O)C2CCC(=O)N(C3CC3)C2)cc1 (stereo unspecified) | -3.6 | -5.9 | 2.4 | -2.4 | -13.7 | 4.9 | -15.1 | i
COc1ccc(/C(C)=N/Nc2cc(C(F)(F)F)ccc2Cl)c(OC)c1 | -8.0 | 3.9 | . | . | 22.6 | . | . | i
COc1ccccc1-c1noc(COC(=O)c2ccc(Br)o2)n1 | . | . | -2.1 | 3.8 | 1.1 | -30.9 | -1.1 | .

Quoted at random: two entries already listed
SMILES | PABP FP inh | eIF4H inh | MT1-MMP act inh | MT1-MMP act inh RFP | CSC inhib | Env fusion inh | UUG fidelity | Rce1 inh | others
Cc1ccccc1Nc1nc(N)nc(CCl)n1 | -7.0 | -10.6 | -1.4 | -5.9 | -4.9 | -41.6 | -17.1 | i
COCCNC(=O)CCCn1c(=O)c2cc(OC)c(OC)cc2n(CC(=O)Nc2ccccc2OC)c1=O | -8.9 | -2.7 | 1.5 | 6.2 | -8.7 | 20.5 | . | i

Next section:
SMILES | PABP FP inh | eIF4H inh | MT1-MMP act inh | MT1-MMP act inh RFP | CSC inhib | Env fusion inh | UUG fidelity | Rce1 inh | others
Cc1cc(C(=O)N/N=C/c2sccc2C)no1 | 6.9 | 5.5 | 4.5 | 4.5 | -12.1 | 9.4 | . | i
Cc1ccc(NC(=S)N=Nc2c(O)[nH]c3ccccc23)cc1 | 10.9 | 8.5 | 10.2 | -3.1 | 52.5 | 15.3 | . | .
COc1ccc(S(=O)(=O)Nc2ccccc2)cc1 | . | . | 1.3 | -1.2 | 5.7 | 4.6 | . | i
CCOc1cc(N2CCOCC2)c(OCC)cc1NC(=O)CN1C(=O)N(C)C2(CCCCC2)C1=O | . | . | 2.7 | 1.8 | . | 20.8 | -15.2 | .
O=C(CCN1CCOCC1)NNC(=O)c1ccc(Cl)c([N+](=O)[O-])c1 | . | . | 2.8 | 2.3 | -17.2 | -5.6 | . | .
O=C(Nc1ccccc1-c1nnc(SCc2ccc(Cl)cc2Cl)o1)c1ccccc1 | 3.2 | 0.7 | -3.8 | -6.5 | 36.4 | -9.2 | . | i
Nn1cnc2cc3ccccc3cc2c1=O | . | . | 1.6 | 4.8 | -12.8 | 4.2 | -20.8 | i
CCc1nn(C)c2c(=O)c(=O)c2n(C)[nH]1 | 57.7* | 99.4* | -2.0 | 0.4 | 1.6 | 10.4 | -9.7 | i
CC(NC(=O)c1cccs1)C(c1cccs1)N1CCOCC1 (stereo unspecified) | -0.5 | 15.3 | 1.4 | 1.0 | -11.6 | -2.4 | 0.6 | i
CCn1c(C)c(C(C)=O)c(N2CCN(c3ccccc3)CC2)nc1=S | 120.4* | 127.5* | -28.7 | 4.0 | -6.0 | . | . | i | eIF4H inh retest=88.1*;PABP FP inh retest=51.0*
O=C(O)CCCCCN1C(=O)CSC1=S | 3.2 | 0.9 | 6.0 | 7.5 | -2.7 | . | -26.4 | i
CN1C(=O)/C(=C/c2ccccc2OCc2ccc(F)cc2)N(C)C1=S | 0.2 | -0.8 | 0.4 | -0.8 | 12.5 | 3.2 | -12.8 | i
CC1/C(=N/O)CC(c2ccccc2)N(C)C1c1ccccc1 (stereo unspecified) | -4.9 | -6.4 | -9.1 | -5.2 | -14.1 | . | -35.6 | i
O=C(/C=C/c1cccnc1)c1ccc(F)c(F)c1 | 5.3 | -9.8 | -2.5 | -4.9 | 6.4 | -5.5 | -5.0 | i
N#C/C(=C(/O)COc1ccc(Cl)cc1)c1nc2ccccc2s1 | 0.2 | -6.5 | -5.8 | -18.2 | 98.9* | 14.6 | . | i
CCOC(=O)N1CCC(N(CCCOC)C(=O)Nc2ccc(CC)cc2)CC1 | -0.5 | -6.6 | 1.7 | 3.0 | 2.4 | . | -8.7 | i
Cc1ccc(CNC(=O)c2oc3ccc(S(=O)(=O)N4CCC5(CC4)OCCO5)cc3c2C)cc1 | -8.4 | 1.9 | 2.2 | -9.9 | 11.0 | 25.8 | -9.1 | .
Cc1c(CN2CCCCC2C)c(=O)n(-c2ccccc2)n1C (stereo unspecified) | 3.1 | -8.2 | -0.2 | 2.5 | -11.6 | 1.6 | -16.4 | i
COC(=O)c1ccc(CN2CCN(C3CCCCC3)C(CCO)C2)cc1 (stereo unspecified) | 1.4 | 3.6 | -3.3 | 2.8 | 5.2 | -11.1 | . | i
CCn1c(SCC(=O)N(C)CC(=O)Nc2ccc(OC)cc2)nnc1-c1ccco1 | . | . | 5.6 | 1.9 | -4.8 | -6.9 | -16.2 | i
CCCNS(=O)(=O)c1ccc(CCC(=O)N2CCOCC2)cc1 | -2.1 | 5.6 | -3.8 | -2.9 | -11.2 | -7.1 | -7.9 | i
COc1ccc(CCNC(=O)C(C)n2nc(C)n3c(cc4occc43)c2=O)cc1OC (stereo unspecified) | 3.8 | -1.4 | -4.1 | -1.3 | -4.8 | 0.4 | -10.8 | i
Cc1cccc(NC(=S)N/C(=N/S(=O)(=O)c2ccccc2)c2ccccc2)c1 | -1.0 | -6.5 | -0.2&6.0 | -3.0&7.3 | -3.5 | 7.7 | -16.6 | i
O=C(NCCCCc1ccccc1)C1CC(c2cccc([N+](=O)[O-])c2)=NO1 (stereo unspecified) | -11.6 | -8.0 | -1.9 | 0.2 | 2.4 | 6.6 | -8.1 | i
CCNc1nc2c(c(=O)n(C)c(=O)n2C)n1Cc1ccc(Cl)cc1 | -11.3 | -5.0 | -3.8 | -25.4 | 9.8 | 60.1* | -7.9 | i
CNS(=O)(=O)c1cc(NC(=O)CCCNC(=O)c2ccc(Cl)cc2)ccc1C | 0.6 | 3.0 | -1.1 | -1.4 | 3.2 | -6.2 | 3.4 | i
C=CCn1c(SCC(=O)NC2CCCC2)nc2ccccc21 | . | . | -2.0 | -3.3 | . | -7.8 | -6.0 | .
O=C(Nc1cccc(C(F)(F)F)c1)c1n[nH]c(Cn2cncn2)n1 | -3.2 | -10.3 | 4.3 | 7.8 | -1.6 | 5.8 | -18.2 | i
Cc1cc(C)nc(N(C#N)Cc2ccc(Br)cc2)n1 | 0.5 | -6.1 | 0.5 | -0.9 | 4.7 | . | 6.6 | i
COc1ccc(S(=O)(=O)N2CCC(C(=O)NCc3ccco3)CC2)cc1C | 0.1 | -1.0 | 3.7 | 1.8 | -15.9 | -8.5 | -40.8 | i
O=C(Nc1cc(C(F)(F)F)ccc1Cl)c1cc2nc3c(c(C(F)(F)F)n2n1)CCCC3 | -1.5 | -0.4 | 11.5 | 6.6 | 22.3 | . | 1.9 | i
Cc1cc(=O)[nH]c(SCC2COC3(CCCCC3)O2)n1 (stereo unspecified) | 4.3 | -4.7 | 5.0 | 8.1 | -7.9 | -50.3 | -12.8 | i
Cc1ccc(C(=O)Nc2nccs2)cc1S(=O)(=O)N1CCCCC1 | -0.2 | -8.0 | -2.0 | -7.9 | -5.7 | . | -14.8 | i
Cc1ccc(NC(=S)N2CCSC2c2cccs2)cc1 (stereo unspecified) | -8.7 | -6.3 | 2.0 | 2.5 | 8.2 | -9.5 | . | i
COc1ccc(Oc2cc(NN3CCCCC3)c([N+](=O)[O-])cc2[N+](=O)[O-])cc1OC | 17.8 | -4.8 | -3.8 | -6.3 | -4.3 | 8.4 | 9.6 | i
Cc1ccc(/C=N/NC(=O)c2cc(C3CC3)nc3ccccc23)o1 | -7.2 | 6.1 | 4.2 | -8.9 | 49.0 | . | -7.8 | i
O=C(Cn1cnc2ccccc2c1=O)N/N=C/c1ccc(Br)cc1 | 1.8 | -4.2 | 0.2 | 0.3 | -4.6 | -0.3 | -15.1 | .
CC(C)(C)c1ccc(/C=C/C(=O)Nc2nncs2)cc1 | -14.1 | -3.4 | -1.9 | -7.4 | -1.8 | -34.4 | -20.4 | i
O=C(NCc1ccccc1)C1Cc2c(-c3ccc4c(c3)OCO4)ccnc2O1 (stereo unspecified) | . | . | 13.7 | -1.1 | . | -203.0 | -5.1 | .
O=C(NCc1ccccc1)C1CC2CCCC(C1)C2=O (stereo unspecified) | 2.3 | -1.6 | -0.5 | 2.4 | -7.6 | 25.6 | -16.0 | i
Cn1c(CCc2ccccc2)nnc1SCC(N)=O | -5.2 | -12.2 | 6.4 | 4.0 | -4.6 | -99.2 | -4.2 | i
CCCC(CCC(=O)NC1CCCCC1)C(=O)O (stereo unspecified) | 1.4 | -7.1 | 2.8 | 0.6 | -12.7 | -11.3 | 9.4 | i

Molecules above containing a cyano group (two):
SMILES | PABP FP inh | eIF4H inh | MT1-MMP act inh | MT1-MMP act inh RFP | CSC inhib | Env fusion inh | UUG fidelity | Rce1 inh | others
N#C/C(=C(/O)COc1ccc(Cl)cc1)c1nc2ccccc2s1 | 0.2 | -6.5 | -5.8 | -18.2 | 98.9* | 14.6 | . | i
Cc1cc(C)nc(N(C#N)Cc2ccc(Br)cc2)n1 | 0.5 | -6.1 | 0.5 | -0.9 | 4.7 | . | 6.6 | i

Screening data deposited in PubChem BioAssay by several laboratories.
